Bioassay records as filed in PubChem.
Beta2AR agonist – beta2AR agonists driving receptor internalization, primary screen, cell-based, FAP fluorogen, flow cytometry; hit rate 0.43% among 340,000; Beta-2 adrenergic receptor (Homo sapiens), P07550; response, % (concentration not given with the values); Am2.2-beta2AR cells; reference of the scale not given here; AID 504454, 2011;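 active = response above a set limit, near 3 SD of response in nonfluorescent compounds, cut at about 42% in these data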;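 also: stock transfer was 100 nL into about 11 µL; a reference agonist was the positive control; negative values mostly stem from fluorescent compounds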
LANA-H2B inh – blockers of LANA interaction with H2A/H2B – biochemical, FP readout, HTS, primary screen. Protein LANA1 (Human herpesvirus 8 type P (isolate GK18)), Q9QR71. cell-free LANA-H2A/H2B peptide, fluorescence polarization. inhibition, % (test concentration not listed). hit rate 0.6% among 320,000. AID 2629, 2010; in the data active = inhibition mostly above about 10%, no sharp cut-off; inactive = mostly below about 6.7%;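 also: stock transfer was 7.5 nL into about 10 µL; 0% = median of vehicle wells and 100% = median of positive control wells; one replicate is shown; the record names a cut of 25% in any replicate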
ALR inh – inhibitors of human ALR sulfhydryl oxidase, primary screen, biochemical, H2O2 detection, HRP-luminol luminescence, single point; FAD-linked sulfhydryl oxidase ALR (Homo sapiens), P55789; purified ALR, DTT oxidation; inhibition, % (no concentration beside the values); hit rate 3.8% among 290,000;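 active = mean and each replicate at 75% or more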;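 also: stock transfer was 7.5 nL into about 7.5 µL; 0% = neutral wells and 100% = wells with inactivated enzyme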
Target sequence (P55789 whole entry, looked up): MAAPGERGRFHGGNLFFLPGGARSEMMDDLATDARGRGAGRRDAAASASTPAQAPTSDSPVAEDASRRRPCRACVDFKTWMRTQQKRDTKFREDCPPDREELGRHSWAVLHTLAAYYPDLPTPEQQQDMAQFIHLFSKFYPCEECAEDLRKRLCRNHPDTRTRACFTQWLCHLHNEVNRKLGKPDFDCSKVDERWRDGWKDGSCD
HNF4A DNA FP – change in binding of human HNF4A to DNA, primary screen, biochemical, fluorescence polarization, FITC-DNA | Hepatocyte nuclear factor 4-alpha (Homo sapiens), P41235 | 1 h | activity change, % at 10 µM | hit rate 0.3% among 360,000 | AID 1224865, 2016; in the data active = activity change above about 30%, passing the limit was not always enough;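 also: controls were the assay level and a saturating level of protein; the project sought stronger binding though the title names inhibitors; some compounds called inactive have numbers as strong as hits; positive values seem to mean higher polarization but the record does not say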
FGF22 binding – binders of human FGF22 protein, primary screen, FGF22 synaptogenesis inhibitor project, biophysical, thermal shift, single point | calls only at 9.99 µM | recombinant FGF22 thermal shift, SYPRO orange fluorescence; percent of sucrose octasulfate shift, DMSO zero | Fibroblast growth factor 22 (Homo sapiens), Q9HCT0 | hit rate 1.5% among 340,000;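 active = melting point raised past a set limit in the mean and every replicate; three in four hits are not shown here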
E coli growth – E. coli growth inhibition, primary screen, OD600 | Escherichia coli growth, 23 h; stronger effect = lower value | OD600 absorbance (no concentration beside the values) | hit rate 0.21% among 330,000;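 active = OD600 absorbance below the run mean of sample wells minus 3.6 SD, in any replicate, cut at about 0.56 in these data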;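 also: stock transfer was 300 nL into about 60 µL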
UCH37 inh – inhibitors of human UCH37 deubiquitinase, primary screen, biochemical, Ub-AMC cleavage, fluorescence. purified proteasome/UCH37. inhibition, % (test concentration not listed). hit rate 0.33% among 330,000. AID 588478, 2011;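 active = mean of two replicates above 20%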;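 also: 0% = compound-free wells with enzyme and 100% = wells lacking proteasome; stock transfer was 100 nL into about 20 µL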
Target sequence (Q9Y5K5 whole entry, looked up): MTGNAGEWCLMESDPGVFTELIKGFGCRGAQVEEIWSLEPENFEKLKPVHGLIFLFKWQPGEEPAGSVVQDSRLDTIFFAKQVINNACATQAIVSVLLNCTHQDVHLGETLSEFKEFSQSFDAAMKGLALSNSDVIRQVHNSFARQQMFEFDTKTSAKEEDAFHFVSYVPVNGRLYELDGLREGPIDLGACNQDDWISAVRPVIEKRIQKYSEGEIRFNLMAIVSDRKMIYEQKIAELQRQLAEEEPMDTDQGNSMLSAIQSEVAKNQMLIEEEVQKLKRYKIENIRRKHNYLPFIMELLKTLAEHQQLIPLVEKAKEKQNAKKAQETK
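Reagent: Ub-AMC substrate; assay system: Proteasome-associated human UCH37 deubiquitinase; controls: no-proteasome and no-compound wells; read-out: % inhibition of Ub-AMC cleavage fluorescence; timing: 30 min preincubation with enzyme, 25 min cleavage at room temperature; signal: AMC fluorescence from Ub-AMC cleavage, excitation 355 nm, emission 460 nm; buffer or medium: Tris-HCl pH 7.4 plus ovalbumin, ATP-MgCl2, DTT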
The depositor's hits bear a star; i = inactive; . = no result given. The list is partial; count on the stated rates, not on these rows.

cpd	smiles	FGF22 binding	HNF4A DNA FP	UCH37 inh	ALR inh	E coli growth	Beta2AR agonist	LANA-H2B inh
1	Cc1sc(NC(=O)c2ccccc2)c(C(=O)N2CCN(C)CC2)c1C	.	2.0	2.1	-1	0.65	-2	0.3
2	CCn1c(CC(=O)Nc2ccc(Cl)c(Cl)c2)nnc1SCc1ccc(Cl)cc1	.	-1.3	-0.1	-5	0.72	-6	0.8
3	CC(CCC(=O)O)C1CCC2C3CC(O)C4CC(O)CC[C@]4(C)C3CCC12C (some centres undefined)	i	3.4	.	.	.	1	.
4	CC1CC(C)CN(S(=O)(=O)c2ccc3c(c2)n(C)c(=O)c(=O)n3C)C1 (centres undefined)	i	-2.0	-18	-6	0.65	-5	-11
5	COc1cc2c(cc1OC)C1C/C(=N\O)C(CC(C)C)CN1CC2 (centres undefined)	.	-0.5	.	-6	.	-3	0.6
6	COc1ccccc1N1CCN(S(=O)(=O)CCNC(=O)CCCc2ccccc2)CC1	i	-0.5	0.9	9	0.66	-2	1.3
7	CSCCC(NC(=O)/C(=C/c1ccc2c(c1)OCO2)NC(=O)c1cccc([N+](=O)[O-])c1)C(=O)O (centres undefined)	i	3.6	8.6	2	0.7	6	5.1
8	CN(C)CCP(=O)(c1ccccc1)c1ccccc1	i	5.7	5.5	-8	0.74	1	-9.6
9	CN(C)C(=S)NC1CCS(=O)(=O)C1 (centres undefined)	i	0.1	2.1	-2	0.65	-2	3.0
10	O=C(COC(=O)c1ccccc1Cl)Nc1cccnc1Cl	i	0.9	-0.2	.	0.63	-4	.
11	CC(=O)Nc1ccc(S(=O)(=O)Nc2cc(C)ccn2)cc1	.	-2.0	-2.9	1	0.77	-3	2.9
12	CC(C)(C)N1CC2(c3ccccc3)CN(C(C)(C)C)CC(c3ccccc3)(C1)C2=O	.	1.7	3.7	.	0.72	6	0.2
13	C=CCn1cnc2c(nnn2-c2ccc(OC)c(OC)c2)c1=O	i	-0.2	4.5	-9	0.7	1	-4.2
14	CCOc1ccccc1NC(=O)Cn1c(=O)c2ccccc2n(CC)c1=O	.	2.2	-1.9	6	0.68	6	-3.5
15	COc1cc2[nH]c(C(=O)Nc3ccc(F)cc3)cc2c(OC)c1OC	i	1.1	.	-3	.	3	-3.1
16	CC(C)=CC(=O)N1CCCC(N2CCN(c3ccc(F)cc3)CC2)C1 (centres undefined)	i	-2.2	2.6	.	0.69	-4	0.5
17	COc1ccc(Nc2nc(-c3ccccc3O)nc3ccccc23)cc1	i	-1.6	3.6	-4	0.7	6	-4.3
18	Cc1ccc(-c2nc(SC(C)C(=O)N3CCCC3)n[nH]2)cc1 (centres undefined)	i	4.2	-0.5	.	0.66	2	-2.4
19	COc1ccccc1NC(=O)NCC(=O)Nc1ccc(F)c(F)c1	.	3.0	5.2	-6	0.71	-1	2.4
20	Cc1cc(C)cc(NS(=O)(=O)c2ccc(Oc3ncc(C(F)(F)F)cc3Cl)cc2)c1	.	0.7	0.6	-1	0.66	0	3.1
21	CCNC(=O)NC(=O)C(C)SCc1ccccc1C (centres undefined)	.	-1.8	3.2	-7	0.67	-1	1.7
22	CC(NC(=O)COC(=O)CSc1ccc(F)cc1)c1ccc(F)cc1 (centres undefined)	i	2.0	3.7	-3	0.7	5	-5.8
23	CCOc1ccc(-c2nc(CSc3nnc(C)s3)cs2)cc1OC	.	0.4	-1.0	.	0.72	-6	0.9
24	Cn1c(NN)nc2ccccc2c1=O	.	-2.3	4.0	23	0.66	1	-6.9
25	COCC(C)n1c(C)cc(C(=O)CSc2nnnn2C2CCCC2)c1C (centres undefined)	i	-0.5	1.6	2	0.69	3	-0.4
26	O=C1C2CCCN2C(=S)N1c1cc(Cl)ccc1Cl (centres undefined)	i	3.7	-0.9	.	0.65	0	.
27	Cc1occc1C(=O)N1CCN(c2ccc([N+](=O)[O-])cc2)CC1	i	-1.3	8.0	-4	0.73	-1	1.3
28	CCCCn1c(N)c(N(CCOC)C(=O)c2cccc(N3C(=O)c4ccccc4C3=O)c2)c(=O)[nH]c1=O	i	-0.3	-2.2	.	0.63	-3	0.4
29	O=C(c1csc2ccccc12)N1CCN(c2ccc(Cl)c(Cl)c2)CC1	.	4.4	3.3	17	0.69	1	0.7
30	Cn1nnc(NC(=O)c2ccc3ccccc3c2)n1	.	1.5	-1.1	-3	0.71	-4	6.1
31	O=C(COc1ccccc1Cl)NCCCNC(=O)c1cnccn1	i	0.6	1.6	-1	0.67	-3	-8.9
32	[2H]c1c([2H])c([2H])c(-c2nc(N3CCCCCC3)sc2C(=O)c2ccccc2)c([2H])c1[2H]	.	3.8	-0.9	-13	0.81	-1	1.1
33	O=C(/C=C/c1ccc2c(c1)OCO2)NCCSCc1ccc(Cl)cc1	.	-3.9	.	-3	.	-2	-1.5
34	CSc1ccc(CN2CCC(Cc3ccccc3)CC2)cc1	i	4.9	6.7	-1	0.66	-1	-5.7
35	CCCSc1nnc(NC(=O)c2sc3nc(-c4cccs4)ccc3c2N)s1	.	33	-45	0	0.71	-51	2.2
36	COc1ccccc1N1CCN(C(=O)c2cc(C(C)(C)C)oc2C)CC1	i	0.7	3.5	2	0.7	1	-7.1
37	COc1ccc(/C=N/NC(=O)c2cccc3ccccc23)c(OC)c1OC	i	-5.3	.	-3	.	-4	0.3
